VDR inhibitor: Inhibitors of the vitamin D receptor (VDR): qHTS; Vitamin D3 receptor (Homo sapiens), P11473; VDR-SRC2-3 peptide fluorescence polarization, 2 h; Potency, µM, for inactives: max response, negative = inhibition, actives largely listed as inhibitors; 400,000 compounds, 0.93% hits; active means well fitted inhibition curve with a large enough effect; inconclusive means small, poorly fitted or top-dose-only effect, or another doubt; inactive means no such curve, though single readings can be large or run the other way; further: series mostly up to about 120 µM
Target sequence (P11473 whole entry, looked up): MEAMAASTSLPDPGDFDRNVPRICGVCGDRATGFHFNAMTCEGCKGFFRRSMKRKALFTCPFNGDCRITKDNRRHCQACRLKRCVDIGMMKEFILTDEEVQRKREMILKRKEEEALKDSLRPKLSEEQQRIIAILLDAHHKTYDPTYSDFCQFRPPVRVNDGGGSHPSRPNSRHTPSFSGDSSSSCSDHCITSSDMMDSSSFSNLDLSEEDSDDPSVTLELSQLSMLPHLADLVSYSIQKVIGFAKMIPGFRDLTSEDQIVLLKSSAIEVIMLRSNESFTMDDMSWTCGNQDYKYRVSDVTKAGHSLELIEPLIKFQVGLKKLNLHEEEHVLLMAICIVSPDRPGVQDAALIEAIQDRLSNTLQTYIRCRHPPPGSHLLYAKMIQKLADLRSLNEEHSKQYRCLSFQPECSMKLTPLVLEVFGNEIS
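FP read-out; VDR + SRC2-3 coactivator peptide; 23 nl compound by pintool; 2 h RT incubation; reagents held at 4 deg C, protected from light.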
* = called active by the depositor; ? = inconclusive. On the % scale 0 is the no-effect control and ±100 the full control effect; potency means the concentration at half of the fitted maximal effect. Only part of the results is shown, so the mix of outcomes need not match the whole.

SMILES	VDR inhibitor
Cn1c(NCCCN2CCOCC2)nc2c1c(=O)n(Cc1ccc(Cl)c(Cl)c1)c(=O)n2C	-9.6%
COc1cc(Cl)ccc1OCc1cc(C(=O)N2CC[C@@H]3CCCC[C@H]3C2)no1	24.0%
CC(C)(C)c1ccc(S(=O)(=O)NCC(=O)N2CCCC2)cc1	-9.2%
CCOC(=O)CN(C(=O)Cn1nnc(-c2ccc(C)cc2)n1)C(CC)C(=O)NC1CCCC1 (stereo not drawn)	1.2%
CCCCC(CCC(=O)O)(C(=O)OCC)c1csc(N)n1 (stereo not drawn)	12.0%
O=C(NCC1CCCO1)c1cc(-c2ccncc2)nc2ccc(S(=O)(=O)N3CCOCC3)cc12 (stereo not drawn)	8.7%
CCOCCCNS(=O)(=O)c1ccc(NC(=O)c2ccc([N+](=O)[O-])cc2Cl)cc1	-4.5%
O=C(CN1C(=O)C2CCCCN2c2ccc(C(=O)N3CCCC3)cc21)NCc1ccc(F)cc1 (stereo not drawn)	3.2%
O=C(NCCN1C(=O)S/C(=C\c2cccnc2)C1=O)C1=NN(c2ccccc2)C(=O)CC1	28.2µM*
O=C(NNC(=O)c1ccc([N+](=O)[O-])cc1C(=O)O)c1ccncc1	-5.0%
COc1ccccc1NC(=O)CSc1nnc(Cc2cccs2)n1C	-10.2%
Cc1nc2nc[nH]n2c(=O)c1CCOC(=O)c1c(F)cccc1F	-13.8%
Cc1c(C(=O)OCC(=O)N(C)Cc2ccc(Cl)cc2)oc2ccccc12	-2.4%
OCc1ccccc1SSc1ccccc1CO	8.91µM*
Cc1ccccc1C(=O)N1CCC(C(=O)N(C)CC(=O)Nc2cccc(F)c2)CC1	5.7%
O=C(O)CCCn1cc(NC(=O)c2cccc(F)c2)cn1	-15.7%
Cc1sc(N2C(=O)C3C4C=CC(C4)C3C2=O)c(C#N)c1C (stereo not drawn)	9.4%
Nn1c(Cc2cccc3ccccc23)nnc1SCC(=O)NCC1CCCO1 (stereo not drawn)	-19.9%
CCOC(=O)C1=C(O)/C(=C\c2ccc(CNC(=O)C(=O)Nc3ccccc3)o2)N=C1C	21.7%
O=C(c1cccc(Cl)c1)C1CCCN(S(=O)(=O)c2ccccc2)C1 (stereo not drawn)	-12.6%
Cc1cccn2c(=O)c3cc(S(=O)(=O)c4ccccc4)c(=N)n(Cc4ccco4)c3nc12	-4.3%
COCCNC(=S)N1CCc2cc(OC)c(OC)cc2C1COc1ccc(C(C)C)cc1 (stereo not drawn)	0.5%
Cc1c(C#N)c2ccccc2n1CC(=O)N1CCCC1	?
CN(C(=O)COC(=O)c1ccc(Cl)c(S(=O)(=O)NCc2ccccc2)c1)C1CCS(=O)(=O)C1 (stereo not drawn)	1.5%
O=C(CCC(=O)OCC(=O)c1ccccc1)Nc1cccc(Cl)c1	-5.2%
CCOc1ccccc1NC(=O)c1csc(C)c1C	16.5%
CCOC(=O)c1ccc(NCc2cccnc2)cc1	-0.5%
CCOC(=O)C1C(=O)NC(c2ccccc2)=NC1c1ccc(O)c(OC)c1 (stereo not drawn)	-0.2%
CSc1ccc(CCNC(=O)CCc2nnc3ccc(N4CCOCC4)nn23)cc1	-4.5%
COc1ccc(C(=O)OCC(=O)NCCCc2ccccc2)cc1[N+](=O)[O-]	-6.5%
Cc1ccc(CCNC(=O)c2cc(S(=O)(=O)N3CCCC3)cn2C)cc1	?
COc1cc(NC(=O)c2cc(-c3cccnc3)nc3ccc(Br)cc23)cc(OC)c1	-5.2%
Cn1c(NNC(=O)CCC2CCCCC2)cc(=O)n(C)c1=O	?
O=C(OCC1OC(n2ccc(=O)[nH]c2=O)C(O)C1OC(=O)c1ccccc1)c1ccccc1 (stereo not drawn)	14.0%
COc1ccc(CCNC(=O)C2CCN(S(=O)(=O)c3ccc(C)cc3)CC2)cc1	?
O=C(C[n+]1cccc2ccccc21)c1ccc(NC(=O)c2ccccc2)cc1	10.0%
Cc1ccnc2nc(C(=O)NCCc3ccc(F)cc3)nn12	-6.5%
Cc1cc(C)cc(OCC(=O)Nc2ccccc2C(=O)NCc2ccco2)c1	-40.3%
CCCCc1nc2c(C)c(N)cnc2n1Cc1cccc([N+](=O)[O-])c1	-1.7%
O=C(NCc1cccc(Cl)c1)c1cc(COc2ccc3ncccc3c2)on1	9.1%

Given with bars between the fields: 2 of the compounds above
mol | VDR inhibitor
Cn1c(NNC(=O)CCC2CCCCC2)cc(=O)n(C)c1=O | ?
O=C(OCC1OC(n2ccc(=O)[nH]c2=O)C(O)C1OC(=O)c1ccccc1)c1ccccc1 (stereo not drawn) | 14.0%

Next part.
SMILES	VDR inhibitor
C=CCN=C1NN=C(c2cc(C)n(CCOC)c2C)CS1	1.6%
COc1cc(Cl)ccc1OCc1cc(C(=O)N2CCCCC2c2cccnc2)no1 (stereo not drawn)	-5.0%
C=C(C)CN(CC)C(=O)COc1ccc(S(=O)(=O)Nc2ccc(OC)cc2)cc1	25.6%
CCn1c(CNC(C)=O)nnc1SCC(=O)c1ccc(Br)cc1	-67.7%
CCN(CC1CCCN(CCc2cccc(OC)c2)C1)C(=O)C=C(C)C (stereo not drawn)	0.5%
Cc1ccc(S(=O)(=O)N(CC(=O)Nc2ccc3c(c2)OCO3)c2ccc(C)c(Cl)c2)cc1	3.6%
CC(C)c1ccc2c(c1)C(c1cccs1)=NNC(c1ccncc1)=N2	11.2%
CC1(c2ccccc2Cl)NC(=O)N(CC(=O)N2c3ccccc3NC(=O)C2(C)C)C1=O (stereo not drawn)	-22.0%
Cc1ccc(C)c(N(CC(=O)NC2CCCC2)C(=O)CCC(=O)Nc2cc(C)on2)c1	-7.8%
Cc1cccc(C(=O)OCC(=O)N2CCCC2=O)c1O	?
Fc1ccc2cnc(-c3ccccc3F)cc2c1	0.2%
N#CCCN(Cc1ccccc1)C(=S)NC(=O)c1ccccc1	-2.1%
Cc1ccc(/C=N/Nc2cccc3cccnc23)c(O)c1	-17.3%
COc1ccc(N2CCN(C(=O)Nc3ccc(S(=O)(=O)N(C)C)cc3)CC2)cc1	-6.7%
COc1cc(/C=N\NC(=O)C(C)(C)O)ccc1OC/C=C/c1ccccc1	17.5%
C=CCn1c(=O)c(C(=O)Nc2ccc(C)cc2)c(O)c2ccccc21	-21.0%
CCOc1ccc(NC(=O)CSc2nnc(-c3cc(C)[nH]n3)n2N)cc1	2.6%
CCCc1cc(=O)n(-c2nc3ccccc3s2)[nH]1	-9.4%
O=C(COC(=O)Cc1ccsc1)Nc1ccc(S(=O)(=O)N2CCOCC2)cc1	-7.4%
N#Cc1cn(CCOc2ccc(F)cc2)c2ccccc12	11.4%
O=C(c1cc2c(ccc3ccccc32)o1)N1CCCCC1	5.3%
CCOc1ccc(NC(=O)CNC(=O)c2ccc(OC)cc2)cc1	-5.7%
CCOC(=O)C1CCN(C(=O)c2ccc(Oc3cc(Cl)cc(Cl)c3)o2)CC1	-10.7%
CCOc1ccccc1N1CCN(C2=C(NS(=O)(=O)c3cccs3)C(=O)c3ccccc3C2=O)CC1	3.1%
CC1(O)N(CCC(=O)Nc2cccc(F)c2)C(=O)OC12CCCCC2 (stereo not drawn)	-1.6%
O=C(O)CCCN=CC1=C(O)C(C(=O)c2ccccc2)CCC1=O (stereo not drawn)	-2.6%
CC(OCC(O)CN(C)CCOc1ccccc1)c1ccc(Cl)cc1 (stereo not drawn)	-10.2%
Cc1ccc(NC(=O)Cn2nnc(C(=O)Nc3ccc(F)c(Cl)c3)c2N)cc1	5.8%
CC(Sc1nncn1C)C(=O)Nc1ccc2ccccc2c1 (stereo not drawn)	22.2%
COc1cccc(/C=N/NC(=O)CNC(=O)CCc2ccccc2)c1O	3.1%
COc1cc(NC(=O)c2cccs2)c(C(=O)OCC(=O)NCc2ccccc2)cc1OC	-6.6%
Cc1ccc(N2C(=O)[C@@H]3C(c4cccnc4)=NO[C@@H]3C2=O)cc1	-3.1%
CCOc1ccccc1N(CC(=O)NCC1CCCO1)C(=O)CCC(=O)Nc1nccs1 (stereo not drawn)	-13.6%
O=[N+]([O-])c1ccc(Cl)cc1NCc1cccnc1	-0.6%
CC(=O)c1nnn(-c2ccc([N+](=O)[O-])cc2)c1C	-5.1%
CCOC(=O)CCS(=O)(=O)c1nc(-c2ccccc2)cc(C(F)(F)F)n1	44.7µM*
CCOC(=O)C1=C(c2ccccc2)N=C2SCC(=O)N2C1c1cccc(OC)c1 (stereo not drawn)	18.6%
Cc1nc(Nc2ccc(S(N)(=O)=O)cc2)sc1C(=O)Nc1ccccc1	10.0%
CSc1ccc(C(=S)N2CCN(C(c3ccccc3)c3ccccc3)CC2)cc1	?
Cn1c(=O)c(-c2cccs2)nc2cnc(N3CCNCC3)nc21	-2.6%

Some of these compounds in order of the VDR inhibitor value, high to low:
SMILES	VDR inhibitor
O=[N+]([O-])c1ccc(Cl)cc1NCc1cccnc1	-0.6%
CC1(O)N(CCC(=O)Nc2cccc(F)c2)C(=O)OC12CCCCC2 (stereo not drawn)	-1.6%
CCOc1ccccc1N(CC(=O)NCC1CCCO1)C(=O)CCC(=O)Nc1nccs1 (stereo not drawn)	-13.6%

Other records.
SMILES	VDR inhibitor
O=C(c1ccccc1NS(=O)(=O)c1ccc(Br)cc1)N1CCOCC1	-22.0%
COC(=O)Cc1c(C)c2cc3c(c(C)c2oc1=O)OCN(CCc1ccccc1F)C3	9.1%
CC(=O)/C=C(\C)Nc1ccc(-c2cnc(-c3ccccc3)o2)cc1	-5.6%
Cc1sc2ncn(CC(=O)N3CCN(c4ccccc4)CC3)c(=O)c2c1S(=O)(=O)N1CCN(c2ncccn2)CC1	-7.3%
COc1ccc(NC(=O)CN(C)C(=O)c2cc3c(s2)CCC3)cc1	4.3%
NC(=O)c1cc(S(=O)(=O)NCCc2ccc(Cl)cc2)cs1	16.6%
O=C(CCN1CCOCC1)NNC(=O)Nc1cccc(C(F)(F)F)c1	-13.2%
O=c1oc2ccccc2n1Cc1cccc(F)c1	-11.6%
CN(C)C(/C=C/Nc1ccc(Br)cc1)=C(C#N)C#N	1.2%
O=C1CCCN1c1ccc(S(=O)(=O)Oc2cccc(Cl)c2)cc1[N+](=O)[O-]	3.9%
CCN1CC(CN(C)Cc2nc(-c3cccs3)no2)CC1=O (stereo not drawn)	-2.3%
Cc1ccc(C)c(NC(=O)CN(C)C(=O)c2ccncc2)c1	-4.7%
NC1=NOC(=O)C1C1CCCCC1 (stereo not drawn)	-17.6%
COc1cc2c(cc1OC)C1=NC(=O)CN1C(SCc1ccc(C)cc1)=N2	-8.6%
O=C1COc2ccc(C(=O)NCc3ccc4c(c3)OCO4)cc2N1	13.8%
NS(=O)(=O)c1cc(C(=O)NCCOc2ccccc2)c(Cl)cc1Cl	3.9%
CC(C)CCn1nnnc1C(c1ccccc1F)N1CCC(C(N)=O)CC1 (stereo not drawn)	4.2%
CCOC(=O)c1nnn2c1nc(N1CCCCC1)c1ccccc12	0.3%
Cc1ccc(CNC(=O)CCS(=O)(=O)c2ccc3c(c2)NC(=O)CO3)cc1	-14.5%
CCOC(=O)c1cc(-c2ccccc2)sc1NC(=O)C(C)OC(=O)c1ccncc1 (stereo not drawn)	-2.3%

Rewritten with bars between the fields: part of the list above
SMILES | VDR inhibitor
CN(C)C(/C=C/Nc1ccc(Br)cc1)=C(C#N)C#N | 1.2%
CC(=O)/C=C(\C)Nc1ccc(-c2cnc(-c3ccccc3)o2)cc1 | -5.6%

Other results:
SMILES	VDR inhibitor
Cc1ccc(-c2csc3nnc(SCC(=O)NCc4ccc5c(c4)OCO5)n23)cc1	14.2%
COc1cc(N2CCCC2)c(OC)cc1C=O	10.3%
COCCN(CC(=O)Nc1cccc(C)c1C)C(=O)Cc1sc(C)nc1-c1ccc(F)cc1	-21.4%
O=C(NCc1cccs1)c1ccc(CSc2nc3ccncc3n2Cc2cccc(F)c2)cc1	6.8%
CCCCn1nc2cc(C(=O)NCc3ccccc3)ccc2c1OCC	-2.4%
O=C(OCC(=O)N(C1CCCCC1)C1CCCCC1)c1ccco1	4.1%
O=C(O)CC/C(=N\NC(=O)CNC(=O)/C=C/c1ccccc1)c1ccccc1	6.7%
COc1ccc(N(CC(=O)N/N=C/c2cccs2)S(=O)(=O)c2ccc(OC)c(OC)c2)cc1	6.8%
CCCCN(CC(=O)NCCOC)C(=O)Cn1nnc2ccccc21	7.1%
S=c1[nH]nc(Cc2ccccc2)n1-c1ccccc1	6.7%
CC(C)Cn1c(=O)c2ccccc2c2ccccc2c1=O	6.5%
CCCCCOc1ccc(C(=O)NCC(=O)NCC(=O)OCC)cc1	-2.1%
Cc1cc(C)c(C#N)c(SCS(=O)c2ccc(C(C)(C)C)cc2)n1 (stereo not drawn)	0.9%
COC(=O)[C@H](Cc1ccccc1)NC(=O)O[C@@H]1Cc2cc(OC)ccc2O[C@H]1c1cccc(OC)c1	-1.2%
Cc1cc(C(=O)COC(=O)c2ccco2)c(C)n1Cc1ccco1	-12.9%
CC(=O)Nc1ccc(S(=O)(=O)NCC(=O)NNC(=O)c2csc(N3CCOCC3)n2)cc1	4.2%
COc1cc(NC(=O)CSc2ccccc2)c(C(=O)O)cc1OC	6.2%
CCCOc1ccc(CN(CCC#N)C(=S)NC(=O)c2ccccc2)cc1	-9.2%
O=C(Nc1ccon1)c1nc[nH]c1C(=O)N1CCc2ccccc2C1	0.4%
CC(=O)NC(CC(=O)N1CCCC1)c1ccccc1 (stereo not drawn)	2.1%

3 structures from above, arranged by number of heavy atoms, ascending:
SMILES	VDR inhibitor
COc1cc(N2CCCC2)c(OC)cc1C=O	10.3%
Cc1cc(C)c(C#N)c(SCS(=O)c2ccc(C(C)(C)C)cc2)n1 (stereo not drawn)	0.9%
CCCCn1nc2cc(C(=O)NCc3ccccc3)ccc2c1OCC	-2.4%

Further entries.
SMILES	VDR inhibitor
CC(=O)N1CCN(c2ccc(C(N)=O)cc2[N+](=O)[O-])CC1	0.2%
CCc1cc2c(=O)nc3n(c2s1)Cc1ccccc1/C3=C(/O)c1cccc([N+](=O)[O-])c1	-1.2%
Cn1c(=O)c2c(nc(SCC(=O)NCc3ccc4c(c3)OCO4)n2Cc2ccc(Cl)cc2)n(C)c1=O	27.0%
CC1(C)OC(=O)C(=CNc2ccccc2)C(=O)O1	-11.0%
O=C(COC(=O)c1ccc(S(=O)(=O)N2CCCC2)cc1)Nc1ccccc1	15.9%
CCOc1cc(Br)c(COc2ccc(C)nc2[N+](=O)[O-])cc1OCC	0.4%
